# Mito fusion yeast: inhibitors of mitochondrial division or activators of mitochondrial fusion. S. cerevisiae fusion-defective mutant growth rescue, CellTiterGlo 48 h. Potency, µM (doses to about 46.1 µM), without a hit: at the highest dose growth rescue (activation), most hits filed as activators. actives 0.23% (n = 320,000). AID 485298;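 also: potency is read from the fitted curve at half-maximal effect; % of control where 0% means no effect; nearly all actives have a fitted effect of over 45% in size; temperature-sensitive fusion mutants such as fzo1-1 at 37 °C on non-fermentable ethanol glycerol medium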
#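 S. cerevisiae fusion-defective temperature-sensitive mutants (e.g. fzo1-1, mgm1-5) grown 48 h at 37C in YPEG (ethanol/glycerol non-fermentable) medium with 23 nl compound per well; growth rescue read as CellTiterGlo luminescence.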
# Rab9 prom act: Rab9 promoter activation; Huh7 Rab9 promoter-luciferase reporter, luminescence, 24 h; Potency, µM (series often up to 9.22 µM), inactives show top-dose activation, negative = inhibition, most hits filed as activators; actives 2.8% (n = 320,000); AID 485297; also: potency is read from the fitted curve at half-maximal effect; % of control where 0% means no effect; nearly all actives have a fitted effect of over 60% in size
#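 Huh7 cells stably carrying Rab9 promoter–luciferase reporter, plated 1500 cells/well, compound added after 2 h and incubated 24 h at 37 °C; luciferase luminescence then read after 10 min with detection reagent.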
# NPC1 promoter act: NPC1 promoter activation; Huh7 NPC1 promoter luciferase reporter, 24 h; Potency, µM (titrated, usually from 9.22 µM), without a hit: at the top dose activation, most hits filed as activators; actives 2.4% (n = 320,000);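 also: potency is read from the fitted curve at half-maximal effect; % of control where 0% means no effect; nearly all actives have a fitted effect of over 60% in size; reporter is driven by a mutant NPC1 promoter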
#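 Quantitative HTS used a cell-based reporter: Huh7 cells stably bearing the NPC1 promoter upstream of luciferase were treated with compounds for 24 h, and promoter activation was read as luminescence.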
# FLuc counter: firefly luciferase modulation, counter-screen for miR-21 project. P08659. purified FLuc, Km substrates, luminescence inhibition. Potency, µM (doses to about 57.5 µM), for inactives: at the top dose activity change, negative = inhibition, actives largely listed as inhibitors. actives 6.9% (n = 360,000). AID 588342;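 also: potency is read from the fitted curve at half-maximal effect; plate controls were vehicle for no effect and reference inhibitor for full effect; nearly all actives have a fitted effect of over 55% in size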
#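 Purified P. pyralis luciferase (10nM final) with 10uM D-luciferin and 10uM ATP (Km levels) in 50mM Tris acetate pH 7.5, 10mM Mg acetate, 0.01% Tween-20, 0.05% BSA; qHTS 6-point titration, ~60 µM downward; luminescence read.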
# KCNH2 3.1 inh: inhibitors of human KCNH2 3.1 potassium channel isoform. activity change, % (tested at about 1.8 µM). actives 0.95% (n = 340,000). AID 720553. U2OS KCNH2 3.1, thallium flux FluxOr; stronger effect = lower value;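 active = maximum activity change below -70%; inconclusive = maximum activity change from -70% to -50%; inactive = maximum activity change above -50%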;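 also: thallium influx rate constant from kinetic fluorescence after stimulation buffer; % is scaled to controls: 0 for no effect and ±100 for the full control effect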
#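 Normalized rate constant (relative to positive and negative DMSO controls) derived from a 2 min kinetic fluorescence read after stimulation; U2OS cells expressing the 3.1 isoform via virus at 1.77 x 10^8 /mL.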
# Gal4-VP16 FLuc: Gal4-VP16 reporter inhibition counter-screen | AID 2546 | Drosophila S2 Gal4-VP16 UAS-luciferase, luminescence, 20 h | actives 3.5% (n = 310,000) | Potency, µM (titrated, usually from 53.6 µM), for the others: at the top dose activity, negative = inhibition, usual class: inhibitors;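 also: Gal4-VP16 expression switched on by copper sulfate through the metallothionein promoter; potency is read from the fitted curve at half-maximal effect; % is scaled to controls: 0 for no effect and ±100 for the full control effect; nearly all actives have a fitted effect of over 50% in size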
# ELG1 DNA repair: blocks ELG1-dependent DNA repair in HEK293T cells; HEK293T ELG1-luciferase reporter, luminescence, 16 h; DNA damage induced by 5-fluorouridine; Potency, µM (highest dose often 46.1 µM), for the others: at the highest dose activity change, negative = inhibition, hits mostly inhibitors; actives 2.3% (n = 330,000); AID 504467; also: potency is read from the fitted curve at half-maximal effect; % is scaled to controls: 0 for no effect and ±100 for the full control effect; nearly all actives have a fitted effect of over 55% in size
#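 Overnight (16 hr) co-exposure of 2,000 cells/well to 5-fluorouridine and compound at 37 °C preceded detection. Luciferase was quantified via ONE-Glo luminescence; loss of signal denotes inhibition.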
# Menin-MLL TR inh: menin-MLL binding inhibition, Texas Red mutant peptide; actives 0.23% (n = 270,000); Menin + Texas Red MLL mutant peptide, fluorescence polarization; Potency, µM (top dose mostly 61.6 µM), inactives show at the top dose FP activity change, negative = inhibition, hits mostly inhibitors; active = well fitted inhibition curve with a large enough effect in the polarisation, with a control signal flat, not every such curve was filed as active; inconclusive = small, poorly fitted or top-dose-only effect, or effect the other way, or a change in a side signal; inactive = no such curve, though single readings can be large or run the other way; the % refers to the polarisation; also: potency is read from the fitted curve at half-maximal effect; % of control where 0% means no effect; many of its hits are not listed in these tables
# MBNL1 CUG block: MBNL1-poly(CUG) RNA binding inhibition | actives 0.036% (n = 280,000) | Q9NR56 | TR-FRET MBNL1-His/biotin-(CUG)12 binding, 665/545 ratio | Potency, µM (titrated, usually from 57.5 µM), for inactives: at the top dose activity change, negative = inhibition, actives largely listed as inhibitors; active = well fitted inhibition curve with a large enough effect in the signal ratio, with a control signal flat, not every such curve was filed as active; inconclusive = small, poorly fitted or top-dose-only effect, or effect the other way, or a change in a side signal; inactive = no such curve, though single readings can be large or run the other way; the % refers to the signal ratio; also: potency is read from the fitted curve at half-maximal effect; % is scaled to controls: 0 for no effect and ±100 for the full control effect
# Target sequence (Q9NR56 whole entry, looked up): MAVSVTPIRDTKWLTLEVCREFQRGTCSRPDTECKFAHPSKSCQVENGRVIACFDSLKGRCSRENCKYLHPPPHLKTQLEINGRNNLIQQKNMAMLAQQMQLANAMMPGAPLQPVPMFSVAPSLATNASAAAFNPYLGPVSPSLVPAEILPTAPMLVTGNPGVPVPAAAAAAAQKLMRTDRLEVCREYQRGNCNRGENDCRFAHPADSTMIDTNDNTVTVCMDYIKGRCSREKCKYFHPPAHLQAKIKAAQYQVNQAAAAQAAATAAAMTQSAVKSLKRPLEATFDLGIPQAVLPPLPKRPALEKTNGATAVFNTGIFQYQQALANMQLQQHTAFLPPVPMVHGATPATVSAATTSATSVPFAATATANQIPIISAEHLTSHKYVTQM
#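 Ratiometric TR-FRET (665 over 545 nm, excitation 340 nm) tracks disruption of MBNL1-His/biotin-(CUG)12 complex after 60 min at room temperature, with compounds at 92 nM to 58 uM final.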
# RORg inh: blocks mouse ROR gamma transcriptional activity; Drosophila S2 Gal4-RORgamma UAS-luciferase reporter, 20 h; Potency, µM (series often up to 53.6 µM), inactives show at the highest dose activity change, negative = inhibition, actives largely listed as inhibitors; actives 5.4% (n = 310,000); also: potency is read from the fitted curve at half-maximal effect; % is scaled to controls: 0 for no effect and ±100 for the full control effect; nearly all actives have a fitted effect of over 60% in size
# Target sequence (P51450 whole entry, looked up, the tested form may be a part): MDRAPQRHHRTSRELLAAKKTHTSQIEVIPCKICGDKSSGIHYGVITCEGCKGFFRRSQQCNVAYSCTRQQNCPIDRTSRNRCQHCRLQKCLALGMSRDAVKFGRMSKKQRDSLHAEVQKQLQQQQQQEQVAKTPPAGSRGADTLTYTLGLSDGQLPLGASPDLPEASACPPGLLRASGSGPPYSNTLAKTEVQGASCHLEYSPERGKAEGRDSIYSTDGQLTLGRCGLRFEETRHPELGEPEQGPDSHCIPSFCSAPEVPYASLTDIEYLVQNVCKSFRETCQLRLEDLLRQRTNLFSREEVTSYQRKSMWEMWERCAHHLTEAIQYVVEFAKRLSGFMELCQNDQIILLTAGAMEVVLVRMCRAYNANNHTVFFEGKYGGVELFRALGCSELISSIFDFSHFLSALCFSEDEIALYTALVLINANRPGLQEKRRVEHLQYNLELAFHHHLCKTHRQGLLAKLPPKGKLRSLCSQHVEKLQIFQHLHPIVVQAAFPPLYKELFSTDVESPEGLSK
#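 Drosophila S2 cells stably expressing Gal4-DBD/mouse RORγ fusion under metallothionein promoter plus UAS-luciferase; compound 1 h, then 700 uM CuSO4 induction for 20 h at ambient temperature; inhibition read as reduced luminescence.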
# Starred values were filed as active, the others as inactive; u = inconclusive; x = not tested or not shown; [ ] = remark or other dose. Unless noted, calls follow the shape of the dose curve; as a rule, active = well fitted curve in the direction sought with a large enough effect; inconclusive = small, poorly fitted or top-dose-only effect, or another doubt; inactive = no such curve, though single readings can be large; an effect the other way counts as inactive or inconclusive. Only part of the results is shown; rates above refer to the full screens.
SMILES,Mito fusion yeast,Rab9 prom act,NPC1 promoter act,FLuc counter,KCNH2 3.1 inh,Gal4-VP16 FLuc,ELG1 DNA repair,Menin-MLL TR inh,MBNL1 CUG block,RORg inh
CCOc1cc(NC(=O)C2CCCO2)c(OCC)cc1NC(=O)C1CC1 (stereo unspecified),4.2%,2.4%,5.7%,0.7%,-0.2,-3.2%,u,-13.3%,-14.9%,1.1%
Cc1noc(C)c1C(=O)NNc1ccc(C(C)C)cc1,-0.3%,2.9%,6.9%,u,11.6,6.8%,11.3%,x,-5.9%,-5.0%
CCOC(=O)CC1=Nc2ccccc2NC(=O)C1,-13.2%,0.3%,-1.6%,-4.7%,-0.2,8.5%,3.0%,-0.4%,1.4%,38.4%
COc1cc(/C=C2/C(=O)N(c3ccc([N+](=O)[O-])cc3)N=C2N2CCOCC2)ccc1O,-6.7%,4.4%,-3.9%,u,-12.6,21.2%,-9.1%,x,x,u
O=C(NC1CCCCC1)c1cc(-c2ccc(F)cc2)on1,-0.1%,3.16µM*,1.41µM*,-9.0%,-0.3,-17.5%,u,6.7%,0.5%,-0.5%
CCCCNC(=S)NNC(=O)c1sccc1C,-9.2%,-4.2%,-2.8%,-0.7%,25.4,-22.4%,3.5%,13.0%,-4.5%,1.41µM*
CCNS(=O)(=O)c1ccc(CCC(=O)NCc2ccccn2)cc1,-0.7%,-2.1%,-5.0%,5.4%,9.2,-17.3%,4.0%,42.7%[activator],-14.1%,-12.8%
CC1(C)CC(N(Cc2ccco2)C(=O)Cc2ccccc2)CCO1 (stereo unspecified),4.1%,-0.8%,0.4%,4.9%,-8.1,1.5%,-1.8%,1.1%,-4.9%,14.7%
CCOC(=O)N1CCN(S(=O)(=O)c2ccc(C(=O)Nc3ccc4c(c3)C(=O)NC4=O)cc2)CC1,-0.4%,-0.9%,-1.4%,-0.5%,11.7,3.1%,17.8%,27.1%,x,-9.3%
O=C1CS/C(=N/N=C/c2cccs2)N1Cc1ccc(F)cc1,-0.4%,0.6%,-1.7%,-0.1%,7.3,-0.6%,20.6µM*,x,-3.3%,1.5%
O=C(CCCn1nnc(-c2cccnc2)n1)c1ccc(F)cc1,-2.5%,-7.3%,0.9%,3.7%,5.1,-2.0%,u,-9.7%,-5.3%,u
O=C(Oc1ccc2c(c1)C(=O)c1ccccc1CO2)c1ccccc1,2.9%,13.8%,1.0%,21.3µM*,-4.9,13.0%,u,-9.0%,0.6%,27.3%
O=C(O)CCSc1nnc(COc2cccc3cccnc23)n1-c1ccccc1,-3.6%,-1.7%,-1.8%,-1.9%,-9.5,1.4%,10.4%,1.5%,3.7%,5.9%
Cn1ccnc1Sc1ccccc1[N+](=O)[O-],0.4%,-1.7%,-6.1%,3.7%,14.3,8.4%,-17.9%,-9.8%,u,15.8%
COCCCn1c(-c2ccccc2Cl)n[nH]c1=S,-4.4%,0.2%,-4.2%,-0.5%,-16.1,u,5.9%,-25.7%,-12.6%,15.8µM*
CCN(Cc1ccc(OC)c(F)c1)C(=O)C1CCCO1 (stereo unspecified),-1.2%,3.1%,-5.8%,0.3%,7.1,-1.4%,15.7%,3.9%,-4.2%,-7.2%
CCc1cc2c(cc3c(=O)n(CC(=O)NCCCN(CC)CC)nc(CC)n32)s1,-4.3%,-3.0%,-1.6%,2.8%,9.3,-4.9%,0.8%,x,4.5%,14.9%
O=C(CSc1cn(CCNC(=O)c2ccccc2F)c2ccccc12)NCC1CCCO1 (stereo unspecified),1.2%,-1.3%,-4.3%,-2.1%,-6.7,2.8%,u,-13.6%,-1.1%,2.3%
COc1cccc(C2Cc3ccccc3C(=O)O2)c1 (stereo unspecified),-10.7%,0.3%,0.9%,-21.4%,-4.4,1.3%,14.0%,-5.9%,4.7%[11.5 µM],-0.4%
COc1ccc(/C=C2\CN(Cc3ccccc3)C/C(=C\c3ccc(OC)c(O)c3)C2=O)cc1O,-10.0%,-30.4%[inhibitor],-37.7%[inhibitor],-7.0%,-14.6,u,u,u,-12.4%,15.8µM*
CN(C)C(CNC(=O)Nc1cccc(Cl)c1)c1cccnc1 (stereo unspecified),-6.9%,-6.3%,-3.8%,5.5%,-10.5,4.0%,13.5%,9.1%,-8.4%,10.5%
COc1ccccc1/C=C(/C(=O)OCC(=O)Nc1ccc(N(C)C)cc1)c1ccccc1,0.1%,1.1%,7.9%,-11.8%,-20.7,4.0%,-8.0%,-11.6%,6.6%,1.1%
CCOC(=O)c1c(C)n(C)c2ccc(OCC(O)CN3CCCCCC3)cc12 (stereo unspecified),2.3%,-5.4%,-0.2%,3.5%,-11.1,-9.2%,2.2%,-13.0%,8.6%,-35.2%
NNC(=O)CSCc1nc(-c2ccc(Cl)cc2)cs1,2.2%,0.5%,12.2%,u,0.5,-4.9%,6.2%,x,-8.6%,40.8%
CCc1ccc(Nc2cnn(-c3nc4ccccc4s3)c(=O)c2Cl)cc1,11.2µM*,u,20.5%,12µM*,0.0,-10.3%,u,9.5%,x,u

# The list goes on:
SMILES,Mito fusion yeast,Rab9 prom act,NPC1 promoter act,FLuc counter,KCNH2 3.1 inh,Gal4-VP16 FLuc,ELG1 DNA repair,Menin-MLL TR inh,MBNL1 CUG block,RORg inh
CSCC[C@H](NS(=O)(=O)c1ccc(C)cc1)C(=O)N1CCC(C(=O)N[C@@H](Cc2ccccc2)C(=O)O)CC1,2.8%,1.3%,-1.7%,1.5%,-1.7,-8.8%,-2.6%,-13.2%,3.9%,-4.6%
Cc1cc(C)nc(Oc2ccc(Br)cc2)n1,-3.8%,-3.1%,0.4%,-4.3%,7.5,12.3%,25.0%,x,2.4%,-8.6%
Cc1c(NC(=O)C(=O)/C=C(\O)c2ccc(Br)cc2)c(=O)n(-c2ccccc2)n1C,-7.6%,-7.7%,4.6%,-0.7%,7.3,-9.2%,3.3%,u,6.2%,u
COc1ccc(/C=C/C(=O)NC(=S)Nc2cc([N+](=O)[O-])ccc2O)cc1OC,-5.6%,0.7%,-0.6%,7.57µM*,-10.8,29.9%,-0.9%,u,6.7%,-26.3%
COc1ccccc1N(CC(O)CN1CCCCC1)S(=O)(=O)c1ccc(C)cc1 (stereo unspecified),-3.7%,1.2%,1.3%,-0.5%,-13.3,0.4%,-2.2%,-16.0%,-3.8%,0.8%
CCOC(=O)Cc1csc(NC(=O)CCCCCN2C(=O)c3ccccc3C2=O)n1,3.1%,-1.5%,-0.3%,-1.4%,-6.8,-24.2%,5.7%,u,-0.8%,25.5%
CN1C(=O)CSc2ccc(NC(=O)N3CCC(N4CCCCC4)CC3)cc21,0.0%,0.3%,0.7%,0.3%,-23.0,-7.1%,u,-3.2%,1.6%,-11.7%
COc1cccc(N2CCN(C(=O)NC3CCCCC3)CC2)c1,-0.4%,6.6%,-1.0%,-0.6%,-5.3,2.5%,-2.3%,-19.1%,-10.9%,4.8%
O=C(C[n+]1cccc2ccccc21)c1ccc(NC(=O)c2ccccc2)cc1,-2.2%,-1.4%,0.7%,-2.9%,6.6,-6.5%,u,0.4%,u,-7.7%
CCCNC(=O)c1ccc(N2CCC3(CC2)CC(c2ccccc2)=NO3)c(NC(=O)c2ccccc2)c1,-0.9%,0.0%,-1.4%,-0.1%,u,0.9%,6.51µM*,-11.5%,-3.1%,-8.0%
Cc1c(NS(=O)(=O)c2cccc(C(=O)NCc3ccccc3)c2)c(=O)n(-c2ccccc2)n1C,0.7%,20.7%,-0.3%,-0.3%,-7.3,-11.6%,-24.4%,-10.1%,2.3%,0.0%

# Among those listed so far, 4 have a Cl atom:
SMILES,Mito fusion yeast,Rab9 prom act,NPC1 promoter act,FLuc counter,KCNH2 3.1 inh,Gal4-VP16 FLuc,ELG1 DNA repair,Menin-MLL TR inh,MBNL1 CUG block,RORg inh
COCCCn1c(-c2ccccc2Cl)n[nH]c1=S,-4.4%,0.2%,-4.2%,-0.5%,-16.1,u,5.9%,-25.7%,-12.6%,15.8µM*
CN(C)C(CNC(=O)Nc1cccc(Cl)c1)c1cccnc1 (stereo unspecified),-6.9%,-6.3%,-3.8%,5.5%,-10.5,4.0%,13.5%,9.1%,-8.4%,10.5%
NNC(=O)CSCc1nc(-c2ccc(Cl)cc2)cs1,2.2%,0.5%,12.2%,u,0.5,-4.9%,6.2%,x,-8.6%,40.8%
CCc1ccc(Nc2cnn(-c3nc4ccccc4s3)c(=O)c2Cl)cc1,11.2µM*,u,20.5%,12µM*,0.0,-10.3%,u,9.5%,x,u

# Source: PubChem BioAssay
